# Rhodamine autofl = rhodamine region autofluorescence; Rhodamine-region fluorescence, 547/598 nm, Tris buffer; stronger effect = higher value; max dye-equivalent concentration, M; actives 0.05% (n = 59,000); AID 594; in the data active = max dye-equivalent concentration above about 11 nM; inconclusive = between about 1.1 nM and that limit
#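 qHTS spectral profiling of compounds without any target or enzyme present, in pH 8.0 Tris buffer; plates were read after a 15-minute room-temperature incubation using the rhodamine-region filter set.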
# ERK AVP inh = blocks ERK signaling stimulated by vasopressin. actives 0.99% (n = 72,000). HEK293-V1b, vasopressin-stimulated pERK AlphaScreen. Potency, µM (series often up to 57.5 µM), for inactives: at the highest dose activity, negative = inhibition, usual class: inhibitors; also: potency is read from the fitted curve at half-maximal effect; % is scaled to controls: 0 for no effect and ±100 for the full control effect; nearly all actives have a fitted effect of over 55% in size
#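 Overnight-seeded V1b-HEK293 cells in 1% FBS got compound, then vasopressin (25 nM final, 5 min, 37C), then lysis buffer. AlphaScreen detection of phospho-ERK; activity normalized to basal and full-stimulation controls.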
# Caspase-7 inhib = caspase-7 (human) inhibition, allosteric or competitive. actives 0.02% (n = 75,000). Potency, µM (titrated, usually from 57.5 µM), without a hit: at the top dose activity change, negative = inhibition, actives largely listed as inhibitors. P55210. recombinant caspase-7, Ac-DEVD-AFC fluorescence rate. AID 889; active = well fitted inhibition curve with a large enough effect in the main read-out, with a control signal flat, not every such curve was filed as active; inconclusive = small, poorly fitted or top-dose-only effect, or a change in a side signal; also: potency is read from the fitted curve at half-maximal effect; % of control where 0% means no effect
# Casp1 inh = allosteric or competitive inhibitors of human caspase-1. P29466. Caspase-1 enzyme, Ac-WEHD-AFC fluorogenic rate. Potency, µM (top dose mostly 57.5 µM), for the others: at the top dose activity change, negative = inhibition, usual class: inhibitors. actives 0.03% (n = 75,000). AID 900;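 also: potency is read from the fitted curve at half-maximal effect; plate controls were vehicle for no effect and no substrate for full effect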
# Fluorescein autfl = compound autofluorescence in fluorescein spectral region | AID 593 | max fluorescein-equivalent concentration, M | actives 0.91% (n = 59,000) | Compound autofluorescence, 480/540 nm, fluorescein-equivalent; stronger effect = higher value; in the data active = max fluorescein-equivalent concentration above about 10 nM; inconclusive = between about 1.1 nM and that limit
#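 Compounds (23 nL) in 100 mM Tris pH 8.0, 15 min at room temperature, then fluorescence read at 480 nm excitation/540 nm emission. Signal converted to fluorescein-equivalent concentration from an on-plate fluorescein standard curve.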
# Texas Red fluor = Texas Red region autofluorescence | Compound fluorescence, Texas Red channel, 547/618 nm; stronger effect = higher value | actives 0.06% (n = 59,000) | max dye-equivalent concentration, M; in the data active = max dye-equivalent concentration above about 10 nM; inconclusive = between about 1.1 nM and that limit
#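 Compound fluorescence was read after 15 min at room temperature in 100 mM Tris, pH 8.0, using 547 nm excitation and 618 nm emission across a concentration series. It was expressed as Texas Red dye-equivalent concentration from an on-plate standard curve.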
# The depositor's hits bear a star; i = inactive; ? = inconclusive; / = no result given; & = joins results of further samples; ! = repeats disagree; [ ] = another dose, or the depositor's remark. Unless noted, calls follow the shape of the dose curve; as a rule, active = well fitted curve in the direction sought with a large enough effect; inconclusive = small, poorly fitted or top-dose-only effect, or another doubt; inactive = no such curve, though single readings can be large; an effect the other way counts as inactive or inconclusive. Only part of the results is shown, so the mix of outcomes need not match the whole.
nr | smiles | Caspase-7 inhib | Rhodamine autofl | Fluorescein autfl | ERK AVP inh | Casp1 inh | Texas Red fluor
1 | O=C1NCN(c2ccccc2)C12CCN(CCCC(c1ccc(F)cc1)c1ccc(F)cc1)CC2 | 2%[25.7 µM] | i | ? | ? | -2%[25.7 µM] | i
2 | CC(=O)OCC(=O)[C@@]1(O)CCC2C3CCC4=CC(=O)C=CC4(C)C3C(O)C[C@]21C (stereo not given in full) | -1% | / | / | -17% | 1% | /
3 | CC1(C)S[C@@H]2[C@H](NC(=O)[C@H](N)c3ccccc3)C(=O)N2[C@H]1C(=O)O | -1% | i | ? | 8% | -4% | i
4 | CC[C@@H](C)[C@H]1O[C@]2(CC[C@@H]1C)C[C@@H]1C[C@H](C/C=C(/C)[C@H](O[C@@H]3C[C@H](OC)[C@H](O[C@@H]4C[C@H](OC)[C@@H](O)[C@H](C)O4)[C@H](C)O3)[C@@H](C)/C=C\C=C3CO[C@@H]4[C@H](O)C(C)=C[C@@H](C(=O)O1)[C@]34O)O2 (tested in a mixture with another compound) | -1% | / | / | 2% | -2% | /
5 | O=C(O)CCc1nc(-c2ccccc2)c(-c2ccccc2)o1 | 0%[11.5 µM] | i | ? | ? | -2%[11.5 µM] | ?
6 | CC1CC2C3CCC4=CC(=O)C=C[C@@]4(C)[C@]3(F)C(O)C[C@]2(C)[C@]1(O)C(=O)CO (stereo not given in full) | 3%&2% | / | / | 7%&-5% | 1%&0% | /
7 | CNC(=O)Oc1ccc2c(c1)[C@@]1(C)CCN(C)[C@@H]1N2C | -1% | i | ? | -28% | -1% | ?
8 | CN/C(=C\[N+](=O)[O-])NCCSCc1csc(CN(C)C)n1 | -1%[25.7 µM] | i | i | -12%[25.7 µM] | 0%[25.7 µM] | i
9 | CC[C@]1(C)CC(=O)NC1=O | 1%[25.7 µM] | i | ? | -5%[25.7 µM] | -2%[25.7 µM] | ?
10 | Cc1ccc(O)c(N=Nc2ccccc2)n1 | 1% | i | i | ? | 3% | i
11 | O=C(NC[C@@H](O)CO)c1c(I)c(C(=O)NC[C@@H](O)CO)c(I)c(N(CCO)C(=O)CO)c1I | -2%[25.7 µM] | i | ? | 9%[25.7 µM] | -1%[25.7 µM] | i
12 | CCCCCCC[N+](CC)(CC)CCCCc1ccc(Cl)cc1 | -1%[25.7 µM] | i | ? | 4%[25.7 µM] | 0%[25.7 µM] | i
13 | COc1ccccc1O | 1%&-1%&3% | / | / | 8%&17%&3% | -3%&-1%&-3% | /
14 | C[C@@H]1C[C@H]2[C@@H]3C[C@H](F)C4=CC(=O)C=C[C@]4(C)[C@@]3(F)[C@@H](O)C[C@]2(C)[C@@]1(O)C(=O)CO | / | i | i | / | / | ?
15 | C1CNCCNCCCNCCNC1 | / | i | ? | / | / | i
16 | O=C1N=C(O)CN1/N=C\c1ccc(-c2ccc([N+](=O)[O-])cc2)o1 | -5% | i | 4.2e-08M*! | 0% | -2% | ?
17 | CCCC(=O)Nc1ccc(OCC(O)CNC(C)C)c(C(C)=O)c1 (stereo not given) | 0% | i | i | 10% | 2% | i
18 | C[C@](N)(Cc1ccc(O)c(O)c1)C(=O)O | -20% | / | / | -24% | -2% | /
19 | CC(C)(N=NC(C)(C)C(=N)N)C(=N)N | 1%[11.5 µM] | i | i | 21%[11.5 µM] | -2%[11.5 µM] | i
20 | O=C(O)c1cc(-c2ccccc2)nc2ccccc12 | 0% | i | ? | -7% | 2% | i
21 | CC(=O)OCC(=O)[C@@]1(O)CCC2C3CCC4=CC(=O)CC[C@]4(C)C3C(=O)C[C@]21C (stereo not given in full) | 3% | / | / | 10% | 0% | /
22 | O=C(O)[C@@H](O)[C@@H](O)[C@H](O)[C@H](O)CO | 2%[11.5 µM] | i | i | 9%[11.5 µM] | 3%[11.5 µM] | ?
23 | N=C(N)N1CCc2ccccc2C1 | 0%[25.7 µM] | i | i | 2%[25.7 µM] | -2%[25.7 µM] | i
24 | Cc1onc(-c2c(Cl)cccc2Cl)c1C(=O)N[C@H]1C(=O)N2[C@H]1SC(C)(C)[C@H]2C(=O)O | -2%[25.7 µM] | i | ? | -16%[25.7 µM] | 8%[25.7 µM] | i
25 | CN/C(=C/[N+](=O)[O-])NCCSCc1ccc(CN(C)C)o1 | / | i | i | / | / | i
26 | Cc1nc(-c2ccc(NC(=O)c3cccs3)cc2)cs1 | -5% | i | i | 4% | -1% | i
27 | CC1=C(/C=C/C(C)=C/C=C/C(C)=C/C(=O)O)C(C)(C)CCC1 | 2% | i | ? | 8% | -1% | i
28 | CCC[C@@H]1O[C@@H]2C[C@@H]3[C@H]4CCC5=CC(=O)C=C[C@@]5(C)[C@H]4[C@H](O)C[C@@]3(C)[C@@]2(C(=O)CO)O1 | -1%[25.7 µM] | i | ? | -7%[25.7 µM] | -2%[25.7 µM] | i
29 | CN1C2CCC1CC(OC(=O)C(CO)c1ccccc1)C2 (stereo not given) | 0%&1% | / | / | -13%&4% | -1%&0% | /
30 | NC(N)=NC(=O)c1nc(Cl)c(N)nc1N | -1% | i | ? | 26% | 0% | ?
31 | CC1=C(\C=C/C(C)=C/C=C\C(C)=C\C(=O)O)C(C)(C)CCC1 | -1% | i | ? | -8% | 3% | ?
32 | C1CCN2C[C@@H]3C[C@@H](CN4CCCC[C@@H]34)[C@H]2C1 | -3% | / | / | -2% | -1% | /
33 | COc1cc2nc(N3CCN(C(=O)[C@H]4CCCO4)CC3)nc(N)c2cc1OC | -3%&2% | i | ? | -12%&33% | -2%&-2% | i
34 | NC(N)=[N+]1CCc2ccccc2C1 | 5% | i | ? | 9% | 1% | i
35 | Cc1nn(-c2nc3ccccc3[nH]2)c(N)c1-c1ccccc1 | -2% | i | i | -16% | -2% | i
36 | CC(C)(C)NC[C@H](O)c1ccc(O)c(CO)c1 | 2% | i | ? | -15% | 4% | i
37 | CCCCOc1ccc(C(=O)Nc2cccc(C)n2)cc1 | 0% | i | i | 26% | 2% | i
38 | CC1(C)SC2C(NC(=O)C(N)c3ccccc3)C(=O)N2C1C(=O)O (stereo not given) | -1% | / | / | 4% | -2% | /
39 | NC(=O)N1c2ccccc2C=Cc2ccccc21 | -4% | i | ? | 34%[activator] | -4% | i
40 | C[C@@H]1C[C@H]2[C@@H]3C[C@H](F)C4=CC(=O)C=C[C@@]4(C)[C@]3(F)[C@H](O)C[C@]2(C)[C@@]1(O)C(=O)CO | 3%[25.7 µM] | i | ? | 6%[25.7 µM] | -3%[25.7 µM] | ?

# Part of the list above, screen by screen.
(35) Cc1nn(-c2nc3ccccc3[nH]2)c(N)c1-c1ccccc1
(36) CC(C)(C)NC[C@H](O)c1ccc(O)c(CO)c1
(37) CCCCOc1ccc(C(=O)Nc2cccc(C)n2)cc1
(38) CC1(C)SC2C(NC(=O)C(N)c3ccccc3)C(=O)N2C1C(=O)O (stereo not given)

Assay by compound,35,36,37,38
Caspase-7 inhib,-2%,2%,0%,-1%
Rhodamine autofl,i,i,i,/
Fluorescein autfl,i,?,i,/
ERK AVP inh,-16%,-15%,26%,4%
Casp1 inh,-2%,4%,2%,-2%
Texas Red fluor,i,i,i,/

# Single records, from the list above.
# COc1cc2nc(N3CCN(C(=O)[C@H]4CCCO4)CC3)nc(N)c2cc1OC is entered as Caspase-7 inhib: -3%&2%; Rhodamine autofl: i; Fluorescein autfl: ?; ERK AVP inh: -12%&33%; Casp1 inh: -2%&-2%; Texas Red fluor: i
# Cc1nn(-c2nc3ccccc3[nH]2)c(N)c1-c1ccccc1 is entered as Caspase-7 inhib: -2%; Rhodamine autofl: i; Fluorescein autfl: i; ERK AVP inh: -16%; Casp1 inh: -2%; Texas Red fluor: i

# Compound activity as filed in PubChem.
